Assay outcomes as filed in PubChem.
West Nile antiviral – inhibition of WNV-induced cytopathic effect – cell-based, CPE readout (AID 1621); West Nile virus-infected cells, CPE inhibition; higher % means a stronger effect; one-dose CPE inhibition, % at 10 µM; IC50 in µM for titrated hits; 290,000 compounds, 0.02% hits; in the data active = a potency from the dose series; inconclusive = CPE inhibition mostly from about 3.7% at the one dose, without a potency; inactive = the rest, 99 in 100 with CPE inhibition below about 2.2%; note: strong numbers were not always called active
MT stabilize HCS – stabilizes microtubules in HeLa cells; HeLa tubulin immunostaining HCS, 24 h; share of cells brighter than vehicle mean+2SD; % tubulin-high responders, % at 10 µM; 200,000 compounds, 0.83% hits;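 active = plate Z-score above 3 for both tubulin-high and condensed-nucleus cell shares, with cell loss under 80%, at 10 µM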;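 note: anti alpha tubulin signal scored within the nucleus-defined area of each cell; some results filed as inactive read as strong as hits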
Myeloid diff 2 – promotes myeloid progenitor differentiation. ER-HoxA9 myeloid progenitors, lysozyme-GFP differentiation, flow cytometry. AID 624256. calls only at 10 µM. 360,000 compounds, 1% hits;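 active = normalized GFP-positive differentiation at or above the plate's own cutoff, the solvent-only control mean plus 3 SD; inconclusive = no clear call, values can overlap the other calls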;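 note: cells exposed to compound for four days before flow analysis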
WT yeast gro inh – growth inhibition of WT yeast, mitochondrial fusion screen. inhibition, % at 10 µM. 190,000 compounds, 2.1% hits. mitochondrial fusion phenotypic screen, WT strain. AID 1362; in the data active = inhibition above about 58%; tested in S. cerevisiae
Ins promoter up – MIN6 insulin promoter up-regulation. MIN6 insulin promoter-GFP reporter, high-content imaging; stronger effect = higher value. z-score at 5 µM. 190,000 compounds, 0.3% hits;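 active = z-score above 3 at 5 µM with at least 500 cells counted in the well; inconclusive = wells under 500 cells, flagged as cytotoxic or low count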
T cell HTS – modulates CD8 T cell binding to vesicles; 2C CD8+ T cell-vesicle binding, flow cytometry; stronger effect = lower value; calls only at 7 µM; 330,000 compounds, 0.068% hits;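 active = response, share of CD8 T cells binding vesicles, and their 90th percentile fluorescence all below set limits, cut at about 80% in these data, passing the limit was not always enough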
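Assay system – 2C mouse CD8+ T cells · Also added – QL9-loaded Drosophila micro-vesicles · Timing – Cell–vesicle co-incubation 1.5 h at 37 °C, staining 20 min on ice · Signal – flow cytometry of vesicle-bound cells · Measure – percent CD8+ FL2 mean versus row control · Controls – Peptide-free naked vesicles (low) and QL9 vesicles with 0.7% DMSO vehicle (high)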
Autophagy HCS – autophagy modulation, high-content screen; 190,000 compounds, 0.98% hits; MEF GFP-LC3 puncta imaging; test concentration mostly 10 µM; calls only at 10 µM (by protocol);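 active = percentage of spot-positive cells more than 3 SD above its plate mean, without a fluorescence outlier flag or 80% toxicity; inconclusive = no clear call, values can overlap the other calls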;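 note: spot-positive cell cutoff set from DMSO-treated cells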
Hep lipid drop – hepatic lipid droplet formation modulation; 240,000 compounds, 0.4% hits; inhibition, % at 6.5 µM; AML12 mouse hepatocytes, oleate lipid droplets, BODIPY imaging;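 active = lipid droplet intensity inhibited by at least 50%, with more than 500 cells counted; inconclusive = wells with under 300 cells, treated as cytotoxic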
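material = mouse AML12 hepatocyte cell line, fixed after treatment | also added = 100 µM oleic acid challenge | doses = compound at 6.5 µM only | schedule = overnight exposure | technique = Image-based BODIPY and DAPI two-channel analysis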
WT yeast gro inh mutant strain – recorded beside WT yeast gro inh, whose call it bears; inhibition, %; mitochondrial fusion phenotypic screen, mutant strain inhibition
Ins promoter up cell count – further read-out of Ins promoter up, marked with its call; cell count; measured here: cytotoxicity, nuclei count;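 total cells summed across four imaged fields per well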
Hep lipid drop cells 6.5 µM – further read-out of Hep lipid drop, marked with its call; cell count; measured here: cell count, cytotoxicity flag;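 cells counted across two imaged fields per well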
T cell HTS vesicle-bound % – also measured in T cell HTS; calls as there; double positive events, %; measured here: CD8+ vesicle-bound cell fraction;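 binding gate set so that unloaded-vesicle control wells show 10% double positive cells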
MT stabilize HCS Hoechst-high % – further read-out of MT stabilize HCS, marked with its call; % Hoechst-high responders; measured here: nuclear condensation Hoechst responders;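 share of cells brighter than vehicle mean plus two SD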
MT stabilize HCS cytotoxicity % – second read-out of MT stabilize HCS, no call of its own (marks repeat the call); toxicity, %; measured here: cytotoxicity by cell density;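 0% = mean cell density of plate MIN control wells and 100% = no cells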
Autophagy HCS cell loss 18 h – recorded beside Autophagy HCS, whose call it bears; toxicity, %; measured here: cell loss, nuclei count;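 cell loss after 18 h compound exposure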
Myeloid diff 2 GFP+ MAC1+ % – further read-out of Myeloid diff 2, marked with its call; GFP+ MAC1+ double positive, %; measured here: differentiation confirmed by MAC1 staining
* marks the source's active call; other numbers are inactive results; i = inactive; ? = inconclusive; · = no result given; & = joins results of further samples. The list is partial; count on the stated rates, not on these rows.

SMILES	West Nile antiviral	MT stabilize HCS	MT stabilize HCS Hoechst-high %	MT stabilize HCS cytotoxicity %	Myeloid diff 2	Myeloid diff 2 GFP+ MAC1+ %	WT yeast gro inh	WT yeast gro inh mutant strain	Ins promoter up	Ins promoter up cell count	T cell HTS	T cell HTS vesicle-bound %	Autophagy HCS	Autophagy HCS cell loss 18 h	Hep lipid drop	others
COc1ccc(NC(=O)c2cn(-c3ccccc3)nc2-c2cc3ccccc3o2)cc1	-0.5%	2.3	1.1	0.7	i	0.7	-1	36	-0.31	1527	i	43	i	6	·
Cc1ccc(-c2csc3ncnc(SCC(=O)c4ccc5c(c4)OCCO5)c23)cc1	0.3%	1.6	1.5	5.0	i	8.6	7	-3	0.83	1522	i	34	i	2	·
COc1ccc(C(=O)Nc2cc(Cl)ccc2OC(=O)c2ccc(OC)cc2)cc1	-0.3%	2.1	1.7	7.2	i	1.0	11	28	0.44	1567	i	31	i	4	·
CN(C)S(=O)(=O)Oc1ccsc1C(=O)Nc1ccc(Cl)c(Cl)c1	?	0.9	2.0	13	i	1.2	45	45	0.97	1256	i	60	i	4	·
O=C(CN1C(=O)C2C3C=CC(C3)C2C1=O)Nc1ccc(C(=O)O)cc1 (configuration not stated)	0.8%	3.5	1.5	5.2	i	6.6	-6	-4	-0.58	1601	i	49	i	-42	·
CC(C)OC(=O)c1sc2nc(-c3ccccc3)ccc2c1N	-0.4%	1.5	1.6	5.5	i	1.9	29	22	1.2	1333	i	15	i	-4	·
Cc1cc(C)c2cc(CN(Cc3nnnn3Cc3ccc(F)cc3)C3CCCC3)c(=O)[nH]c2c1	0.3%	2.5	3.3	2.2	i	5.8	-4	-1	0.11	1555	i	10	i	3	·
CC(=O)Nc1ccc(OCC(O)Cn2c3ccccc3c3ccccc32)c(C)c1 (configuration not stated)	0.1%	6.4	2.2	3.9	i	9.4	5	17	-0.97	1573	i	26	i	-23	·
FC(F)(F)c1cccc(Oc2nc(-c3ccccc3)nnc2C(F)(F)F)c1	-0.4%	2.4	1.2	6.7	i	1.0	23	19	0.79	1572	i	15	i	33	·
CCOC(=O)c1cc2c(=O)n3cccc(C)c3nc2n(Cc2ccco2)c1=NC(=O)c1ccccc1	1.5%	2.0	2.0	2.3	i	0.2&1.8	9	9	-0.59	844	i	43	i	3	·
C=CCn1c(SCC(=O)N2CC(=O)Nc3ccccc32)nc2scc(-c3ccccc3)c2c1=O	0.6%	5.1	1.5	0.8	i	0.5	-14	-23	-1.3	1178	i	23	i	-1	·
CCOc1ccc(NC(=O)C(C)Oc2ccccc2C(=O)Nc2cccc(Cl)c2Cl)cc1 (configuration not stated)	-0.2%	5.8	1.4	1.5	i	0.5	9	16	-1.4	1232	i	40	i	0	·
CC1CC(C)CN(Cc2nc(N)nc(Nc3ccccc3)n2)C1 (configuration not stated)	-0.4%	1.9	1.9	5.4	i	0.9	3	9	-1.1	1456	i	20	i	6	·
Cc1nn(-c2ccccc2)c2c1C(=O)N(Cc1ccccc1)C(=O)C(C)(C)C2	-0.4%	2.6	1.7	3.8	i	0.7	35	12	-0.37	1588	i	33	i	1	·
Nc1nc(N2CCOCC2)cc(=O)[nH]1	·	2.3	2.1	4.8	i	0.8	-13	-4	0.42	1414	i	14	i	0	·
Cc1nn(CCOc2ccccc2)c(=O)n1-c1ccc(F)cc1	-0.6%	1.0	1.8	6.9	i	0.5	-25	-39	0.46	1382	i	17	i	9	·
O=C(O/N=C\c1ccc(N2CCCCC2)c([N+](=O)[O-])c1)c1cccc(Cl)c1	·	2.3	6.1	8.8	i	0.5	-13	7	-0.46	1527	i	39	i	16	·
Cn1c(CN2CCOCC2)nnc1SCC(N)=O	1.1%	2.7	1.8	9.8	i	1.1	29	6	0.72	1613	i	36	i	-6	·
COc1cc(CNC2CCCC2)cc(Cl)c1OCc1ccccc1Cl	-2.5%	4.4	2.4	3.8	i	12	20	20	-0.83	1319	i	38	i	2	·
CC(C)CN(CC(C)C)S(=O)(=O)N1CCC(C(=O)NCc2ccc(F)cc2)CC1	-0.9%	4.8	3.8	6.1	i	2.9	56	-25	0.13	1378	i	49	i	20	·
CC1(C)CC(=O)C(C(c2ccco2)C2C(=O)CC(C)(C)CC2=O)C(=O)C1	0.3%	4.1	1.5	3.2	i	2.6	11	-5	0.14	1867	i	23	i	-7	-4	Hep lipid drop cells 6.5 µM=592
Cc1ccc(SCc2nc3ccccc3n2CC(=O)Nc2ccc(Cl)cc2)cc1	?	1.9	1.1	8.5	i	6.4	26	6	0.76	1443	i	31	i	19	·
OCCNC1=NCCN1	0.2%	3.3	2.2	9.5	i	0.8	-6	-6	0.02	1447	i	23	i	5	·
O=C(Cc1ccccc1)NC(NC(=S)Nc1cc(Cl)ccc1Cl)C(Cl)(Cl)Cl (configuration not stated)	-0.5%	3.5	2.0	6.5	i	0.7	16	15	-0.08	1587	i	23	i	3	·
Cc1cc(NC(=O)c2cccc(F)c2)no1	·	1.8	1.7	8.3	i	0.9	4	2	-0.8	1592	i	57	i	6	·
Cc1cc(CSc2ccccc2)ccc1NC(=O)c1cccc([N+](=O)[O-])c1	-0.2%	1.5	1.5	6.2	i	1.4	19	16	-0.39	1571	i	36	i	14	·
CCOc1c(Cl)cc(Cl)cc1CNCCNCCO	-0.2%	4.1	2.4	7.6	i	1.9	-4	2	-0.17	1083	i	12	i	-24	·
CC(C)CNc1cc(N2CCCC2)ccc1[N+](=O)[O-]	-0.4%	3.6	1.5	6.3	i	6.2	5	-6	0.33	1422	i	23	i	22	·
COc1ccc2nc(Sc3c([N+](=O)[O-])nc(C)n3Cc3ccccc3)[nH]c2c1	1.6%	2.2	1.7	4.7	·	·	9	16	0.32	1478	i	5	i	-19	·
CCOC(=O)C1(N(CC)CC)Sc2cc(C)ccc2NC1=O (configuration not stated)	·	2.2	3.2	11	i	0.5	10	-2	1.1	1502	i	43	i	-7	·

Fetched one by one from the list above, two records:
SMILES	West Nile antiviral	MT stabilize HCS	MT stabilize HCS Hoechst-high %	MT stabilize HCS cytotoxicity %	Myeloid diff 2	Myeloid diff 2 GFP+ MAC1+ %	WT yeast gro inh	WT yeast gro inh mutant strain	Ins promoter up	Ins promoter up cell count	T cell HTS	T cell HTS vesicle-bound %	Autophagy HCS	Autophagy HCS cell loss 18 h	Hep lipid drop	others
Cc1cc(NC(=O)c2cccc(F)c2)no1	·	1.8	1.7	8.3	i	0.9	4	2	-0.8	1592	i	57	i	6	·
OCCNC1=NCCN1	0.2%	3.3	2.2	9.5	i	0.8	-6	-6	0.02	1447	i	23	i	5	·

Next records
SMILES	West Nile antiviral	MT stabilize HCS	MT stabilize HCS Hoechst-high %	MT stabilize HCS cytotoxicity %	Myeloid diff 2	Myeloid diff 2 GFP+ MAC1+ %	WT yeast gro inh	WT yeast gro inh mutant strain	Ins promoter up	Ins promoter up cell count	T cell HTS	T cell HTS vesicle-bound %	Autophagy HCS	Autophagy HCS cell loss 18 h	Hep lipid drop	others
COc1ccc(NC(=O)CSc2ncnc3c2cnn3Cc2ccccc2)cc1	-0.5%	1.3	1.0	6.7	i	0.5	11	-4	-0.72	757	i	40	i	-2	-1	Hep lipid drop cells 6.5 µM=826
CCN(C(=O)Cc1ccccc1OC)c1nnc(-c2ccncc2)s1	-0.3%	3.7	1.5	6.2	i	2.2	-8	-16	-0.09	1570	i	27	i	-13	·
CCOc1ccc(-c2c[n+](=O)c3c(n2[O-])CCCC3)c(OCC)c1	0.0%	2.6	1.8	4.5	i	5.8	3	-20	-0.46	1525	i	60	i	7	·
CCCCNC(=O)COC(=O)c1cc(F)c(F)cc1Cl	0.1%	3.4	2.3	1.1	i	0.9	9	-6	0.37	1700	i	43	i	-2	·
COc1ccc2c(c1[N+](=O)[O-])CCC/C2=N/OC(=O)c1ccccc1SC	0.2%	2.5	1.4	0.1	i	0.9	2	-8	0.02	1336	i	33	i	-7	·
Cc1ccc(NS(=O)(=O)c2cc(C(=O)NCc3ccccn3)ccc2Cl)cc1C	0.0%	3.4	2.4	6.8	i	4.8	9	-6	0.19	1423	i	41	i	-18	·
CCOC(=O)CCCNC(=O)c1cncc(Br)c1	0.4%	6.2	3.4	9.7	i	1.4	6	-10	-0.39	1721	i	25	i	-3	·
COc1cccc(-n2c(SCC(=O)Nc3sc4c(c3C(N)=O)CCC4)nc3ccccc3c2=O)c1	0.4%	2.6	1.5	7.1	i	2.7	20	7	1.3	1452	i	27	i	-16	·
C1CCC2=NCCCN2CC1	0.2%	1.5	0.1	7.9	i	7.6	0	13	-0.09	1325	i	7	i	0	-5	Hep lipid drop cells 6.5 µM=601
CCOc1c2ccc(C(=O)NCc3cc(C(F)(F)F)cc(C(F)(F)F)c3)cc2nn1CCOC	-0.3%	2.6	2.0	7.6	i	1.6	40	21	-0.19	1427	i	32	i	-3	·
COc1ccc(NC(=O)N(C2CCCCC2)C(C)c2cccnc2)c(OC)c1 (configuration not stated)	0.0%	2.7	1.4	8.4	i	0.7	15	18	0.62	1601	i	30	i	-6	·

Grouped by structure: those above containing a nitro group on carbon
SMILES	West Nile antiviral	MT stabilize HCS	MT stabilize HCS Hoechst-high %	MT stabilize HCS cytotoxicity %	Myeloid diff 2	Myeloid diff 2 GFP+ MAC1+ %	WT yeast gro inh	WT yeast gro inh mutant strain	Ins promoter up	Ins promoter up cell count	T cell HTS	T cell HTS vesicle-bound %	Autophagy HCS	Autophagy HCS cell loss 18 h	Hep lipid drop	others
O=C(O/N=C\c1ccc(N2CCCCC2)c([N+](=O)[O-])c1)c1cccc(Cl)c1	·	2.3	6.1	8.8	i	0.5	-13	7	-0.46	1527	i	39	i	16	·
Cc1cc(CSc2ccccc2)ccc1NC(=O)c1cccc([N+](=O)[O-])c1	-0.2%	1.5	1.5	6.2	i	1.4	19	16	-0.39	1571	i	36	i	14	·
CC(C)CNc1cc(N2CCCC2)ccc1[N+](=O)[O-]	-0.4%	3.6	1.5	6.3	i	6.2	5	-6	0.33	1422	i	23	i	22	·
COc1ccc2nc(Sc3c([N+](=O)[O-])nc(C)n3Cc3ccccc3)[nH]c2c1	1.6%	2.2	1.7	4.7	·	·	9	16	0.32	1478	i	5	i	-19	·
COc1ccc2c(c1[N+](=O)[O-])CCC/C2=N/OC(=O)c1ccccc1SC	0.2%	2.5	1.4	0.1	i	0.9	2	-8	0.02	1336	i	33	i	-7	·
